E coli growth: E. coli growth inhibition, primary screen, OD600 | Escherichia coli growth, 23 h; active compounds read low | OD600 absorbance (test concentration not listed) | 0.21% of 330,000 active | AID 1053175, 2014;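 active = OD600 absorbance below the run mean of sample wells minus 3.6 SD, in any replicate, cut at about 0.56 in these data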;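 note: stock transfer was 300 nL into about 60 µL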
UCH37 DUB inh: inhibitors of human UCH37 deubiquitinase, primary screen, biochemical, Ub-AMC cleavage, fluorescence; Ubiquitin carboxyl-terminal hydrolase isozyme L5 (Homo sapiens), Q9Y5K5; purified proteasome/UCH37; inhibition, % (test concentration not listed); 0.33% of 330,000 active;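 active = mean of two replicates above 20%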;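 note: 0% = compound-free wells with enzyme and 100% = wells lacking proteasome; stock transfer was 100 nL into about 20 µL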
Target sequence (Q9Y5K5 whole entry, looked up): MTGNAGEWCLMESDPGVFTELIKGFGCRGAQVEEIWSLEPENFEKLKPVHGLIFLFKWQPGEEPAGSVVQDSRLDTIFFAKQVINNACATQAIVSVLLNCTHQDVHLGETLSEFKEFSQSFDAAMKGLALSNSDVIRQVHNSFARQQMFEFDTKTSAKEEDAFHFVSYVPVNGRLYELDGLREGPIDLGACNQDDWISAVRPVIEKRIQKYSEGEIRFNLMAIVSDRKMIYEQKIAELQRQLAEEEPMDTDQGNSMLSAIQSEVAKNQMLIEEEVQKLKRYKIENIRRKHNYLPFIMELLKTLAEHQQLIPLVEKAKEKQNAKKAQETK
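Material: human UCH37 enzyme supplied as purified proteasome complex / Amount: 0.15 nM proteasome as dispensed / Buffer or medium: pH 7.4 Tris-HCl (50 mM) with ovalbumin, ATP-MgCl2, DTT / Times: preincubation 30 min, reaction 25 min, room temperature / Technique: AMC fluorescence from Ub-AMC cleavage, excitation 355 nm, emission 460 nm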
FGF22 binding: binders of human FGF22 protein, primary screen, FGF22 synaptogenesis inhibitor project, biophysical, thermal shift, single point. Fibroblast growth factor 22 (Homo sapiens), Q9HCT0. recombinant FGF22 thermal shift, SYPRO orange fluorescence; percent of sucrose octasulfate shift, DMSO zero. calls only at 9.99 µM. 1.5% of 340,000 active;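 active = melting point raised past a set limit in the mean and every replicate; three in four hits are not shown here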
Target sequence (Q9HCT0 whole entry, looked up): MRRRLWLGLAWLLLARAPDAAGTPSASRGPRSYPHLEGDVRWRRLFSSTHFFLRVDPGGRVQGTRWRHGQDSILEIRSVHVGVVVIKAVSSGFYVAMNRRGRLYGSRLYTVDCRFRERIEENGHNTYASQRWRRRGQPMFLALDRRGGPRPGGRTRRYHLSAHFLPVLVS
HNF4A DNA FP: change in binding of human HNF4A to DNA, primary screen, biochemical, fluorescence polarization, FITC-DNA; AID 1224865, 2016; activity change, % at 10 µM; 1 h; Hepatocyte nuclear factor 4-alpha (Homo sapiens), P41235; 0.3% of 360,000 active; in the data active = activity change above about 30%, passing the limit was not always enough;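 note: controls were the assay level and a saturating level of protein; the project sought stronger binding though the title names inhibitors; some compounds called inactive have numbers as strong as hits; positive values seem to mean higher polarization but the record does not say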
Beta2AR agonist: beta2AR agonists driving receptor internalization, primary screen, cell-based, FAP fluorogen, flow cytometry. Beta-2 adrenergic receptor (Homo sapiens), P07550. AID 504454, 2011. Am2.2-beta2AR cells; reference of the scale not given here. 0.43% of 340,000 active. response, % (no concentration beside the values);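 active = response above a set limit, near 3 SD of response in nonfluorescent compounds, cut at about 42% in these data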;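 note: stock transfer was 100 nL into about 11 µL; a reference agonist was the positive control; negative values mostly stem from fluorescent compounds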
Target sequence (P07550 whole entry, looked up): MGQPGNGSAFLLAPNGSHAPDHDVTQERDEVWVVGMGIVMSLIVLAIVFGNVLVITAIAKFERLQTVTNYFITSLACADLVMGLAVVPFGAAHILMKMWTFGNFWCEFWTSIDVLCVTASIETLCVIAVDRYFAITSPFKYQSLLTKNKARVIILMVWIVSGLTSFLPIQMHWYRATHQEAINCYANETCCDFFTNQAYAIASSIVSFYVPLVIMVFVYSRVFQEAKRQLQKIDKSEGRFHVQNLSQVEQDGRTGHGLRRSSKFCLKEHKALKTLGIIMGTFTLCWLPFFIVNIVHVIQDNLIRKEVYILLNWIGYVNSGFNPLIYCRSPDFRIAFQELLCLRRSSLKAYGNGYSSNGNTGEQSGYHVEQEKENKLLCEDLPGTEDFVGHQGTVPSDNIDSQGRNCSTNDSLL
Ecoli rRNA inh: reduced GFP signal of wild-type E. coli, primary screen, bacterial rRNA inhibitor project, GFP/RFP fluorescence, OD600, single point; E. coli WT GFP vs humanized-ribosome RFP mutants, 24 h; active compounds read low; DMSO median 0, no signal -100; GFP signal change (wild-type ribosome), % (concentration not given with the values); 1.6% of 350,000 active;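 active = significant combined selectivity score with lowered wild-type GFP, culture density cut under 30%, mutant RFP and density less affected; inactive = any of these conditions unmet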; note: one replicate is shown; some compounds called inactive have numbers as strong as hits
ALR H2O2 inh: inhibitors of human ALR sulfhydryl oxidase, primary screen, biochemical, H2O2 detection, HRP-luminol luminescence, single point | purified ALR, DTT oxidation | inhibition, % (test concentration not listed) | 3.8% of 290,000 active | AID 485317, 2010;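 active = mean and each replicate at 75% or more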;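 note: stock transfer was 7.5 nL into about 7.5 µL; 0% = neutral wells and 100% = wells with inactivated enzyme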
Ecoli rRNA inh OD600: also measured in Ecoli rRNA inh; calls as there; OD600 change, %; measured here: OD600 growth;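 optical density of the mix in the first replicate; 0 = DMSO median and -100 = no signal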
Ecoli rRNA inh RFP: second read-out of Ecoli rRNA inh, no call of its own (marks repeat the call); RFP signal change, %; measured here: RFP humanized mutant strains;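 first replicate; 0 = DMSO median and -100 = no signal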
Numbers without * were called inactive; i = inactive; . = no result given; & = joins results of further samples. These rows are one share of the data, so the mix of outcomes need not match the whole.

SMILES | E coli growth | UCH37 DUB inh | FGF22 binding | HNF4A DNA FP | Beta2AR agonist | Ecoli rRNA inh | Ecoli rRNA inh OD600 | Ecoli rRNA inh RFP | ALR H2O2 inh
O=C(CN1C(=O)S/C(=C\c2ccccn2)C1=O)Nc1ccc(F)cc1 | 0.62 | 1.7 | i | 1.2 | -7 | 11 | 6 | 0.1 | -3
COc1ccc(CCNC(=O)c2c[nH]c3ccccc3c2=O)cc1OC | 0.68 | 5.1 | . | 4.4 | -5 | . | . | . | 0
O=C(C1=C(O)C(=O)N(CCc2ccccc2)C1c1ccncc1)c1cc2ccccc2o1 (configuration not stated) | 0.72 | 2.7 | i | 1.6 | -6 | -13 | -8 | -4.5 | 8
CCc1ccc(OCCSc2nc3ccccc3n2CCC(=O)O)cc1 | 0.61 | 3.1 | i | -0.6 | 7 | -17 | -9 | -4.1 | .
CCN(C(=O)Cn1c(=O)oc2ccccc21)c1c(N)n(Cc2ccccc2)c(=O)[nH]c1=O | 0.67 | 2.4 | i | -4.7 | -2 | 10 | 7 | 1.4 | -9
O=C(c1ccc(C(F)(F)F)n(Cc2ccc(Cl)cc2)c1=O)N1CCOCC1 | 0.68 | 2.9 | i | -3.5 | -10 | -4 | -1 | -0.5 | -49
CC(C)c1cc(Br)ccc1OCCN1C(=O)NC(C)(C)C1=O | 0.61 | 3.9 | i | 1.6 | -10 | -54 | -77 | -27 | 2
CN(C)C(=O)CSc1ncccc1-c1nc2ccccc2[nH]1 | 0.63 | 2.5 | i | -2.5 | 0 | 11 | 8 | 4.5 | -8
Cc1[nH]n(-c2ncc(-c3ccccc3)s2)c(=O)c1C(c1ccc(Br)cc1)C(C#N)C#N (configuration not stated) | 0.65 | 3.5 | i | -5.9 | 39 | -5 | 4 | -1.1 | 7
CCN(CC)N=Nc1ccc(S(=O)(=O)N2CCSC2C(=O)O)cc1 (configuration not stated) | 0.66 | 12 | i | -0.6 | -2 | 11 | 7 | 2.2 | -2
Cc1ccc(Sc2ccc(C(=O)N3CCOCC3)cc2[N+](=O)[O-])cc1 | 0.68 | 4.7 | i | -2.0 | -4 | -5 | 1 | 4.1 | -7
CCCCS/C(N)=N/N=C/c1ccccc1O | . | . | . | 0.1 | -12 | . | . | . | 3
CC1CC(C)CN(C(=O)COC(=O)c2nn(C)c(=O)c3ccccc23)C1 (configuration not stated) | 0.7 | 2.0 | i | 2.4 | 3 | -4 | -1 | -1.3 | -5
CCOC(=O)COc1ccc2c(=O)c(-c3ccccc3OC)coc2c1 | 0.69 | 4.7 | i | -41 | 29 | 12 | 3 | 8.3 | 5
Cc1ccsc1/C=N/NC(=O)CNC(=O)c1ccc(S(=O)(=O)N2CCOCC2)cc1 | . | . | i | 4.5 | -1 | 14 | 12 | 2.4 | 2
O=C(Nc1ccncc1)OCc1ccccc1 | 0.65 | 0.1 | i | 5.4 | 10 | 6 | 10 | 1.4 | -6
COCc1[nH][nH]c(=O)c1C=NCC(=O)OC | 0.72 | 4.1 | . | -3.4 | 1 | 9 | 5 | 0.4 | -2
COc1ccc(NC(=O)OCC(C)C)cc1OC | 0.73 | 0.5 | i | -3.1 | 4 | 0 | 2 | -1.6 | -22
Cc1cn([C@H]2C[C@H](O)[C@@H](CNC(=O)[C@H](N)C3CC3)O2)c(=O)[nH]c1=O | . | . | i | 0.7 | . | 10 | 14 | -1.7 | .
COc1ccc(NC(=S)NC(NC(C)=O)C(Cl)(Cl)Cl)c([N+](=O)[O-])c1 (configuration not stated) | 0.66 | -1.5 | i | -1.8 | -3 | . | . | . | -7
Cc1ccc(-c2cc3nc(-c4ccccc4)cc(N)n3n2)cc1 | 0.77 | -35 | . | -1.4 | -11 | . | . | . | 2
Cc1cccc(Nc2nc(CC(=O)O)cs2)c1 | 0.67 | -0.6 | i | 3.4 | 0 | 4 | 8 | 1.6 | 30
OC1CCCN(c2ncnc3c2nnn3Cc2c(F)cccc2Cl)C1 (configuration not stated) | 0.69 | 1.5 | i | 0.2 | 1 | -2 | -8 | 1.0 | -3
CC(=O)c1cc(CC(=O)N2CCc3c([nH]c4ccccc34)C2c2ccccn2)cs1 (configuration not stated) | 0.7 | 4.1 | i | 5.7 | -10 | -33 | -34 | -0.7 | -19
Cc1ccc(C2C(C#N)=C(N)SC(N)=C2C#N)cc1 | 0.63 | 5.7 | . | 120 | -14 | . | . | . | .
CC(=O)NN1C(=O)c2ccc3c4c(ccc(c24)C1=O)C(=O)N(NC(C)=O)C3=O | 0.67 | 14 | i | 0.5 | 3 | -22* | -9.3* | -0.1* | -37
Cc1cc(C)n(-c2ccc(C(=O)OCC(=O)c3ccc(Br)s3)cc2)n1 | 0.73 | 1.6 | . | 3.1 | -2 | . | . | . | -7
CC(=O)NC(c1ccccc1)c1nc2ccccc2[nH]1 (configuration not stated) | 0.69 | 0.8 | . | 2.4 | -4 | . | . | . | -1
O=C(CSc1nnc2c(n1)[nH]c1ccc(F)cc12)OCc1ccccc1 | 0.7 | 2.4 | . | -0.1 | -5 | . | . | . | -8
Cc1ccc(S(=O)(=O)N2CCN(C(=O)CCn3nc(C)c(C)c3C)CC2)cc1 | 0.69 | 1.8 | i | 0.7 | -50 | 0 | 15 | 0.3 | -6
O=C(NCC1CCCO1)c1cc(S(=O)(=O)N2CCOCC2)ccc1Cl (configuration not stated) | 0.72 | 5.0 | i | -2.6 | 2 | 18 | 21 | 2.5 | -2
CCCCNC(=O)C1CCN(C(=O)C2CCN(S(=O)(=O)c3ccc(C)cc3)CC2)CC1 | 0.65 | 5.5 | i | -0.1 | 4 | 2 | 9 | 1.3 | -5
COc1ccc(NC(=O)CN(C)C(=O)Cc2c[nH]c3ccccc23)cc1 | 0.64 | 0.0 | i | 2.6 | 3 | 15 | 13 | 2.3 | 9
CCCCC(NC(=O)c1cccc(Br)c1)C(=O)O (configuration not stated) | 0.67 | -1.4 | . | 0.9 | -7 | . | . | . | 0
c1cncc(-c2nnc3n2C2(CCCCC2)Cc2ccccc2-3)c1 | 0.69 | -0.6 | . | -0.1 | -3 | . | . | . | -7
O=C(COc1cc(Cl)c(Cl)cc1Cl)NCCN1CCOCC1 | 0.71 | 6.6 | . | -1.3 | -82 | . | . | . | .
O=Cc1cccn1-c1cccc([N+](=O)[O-])c1 | 0.73 | 5.7 | i | -0.7 | -5 | 24 | 19 | -3.3 | 5
Cn1ncc2nnn(-c3ccccc3)c(=O)c21 | 0.74 | 4.8 | . | 0.9 | -14 | . | . | . | -14
Cc1ncoc1C(=O)NCc1ccccc1Cl | 0.64 | 4.7 | i | -3.0 | 5 | 9 | 6 | -2.9 | -1
O=C(Nc1nc(-c2ccccc2)cs1)C1CCCN(S(=O)(=O)c2ccccc2)C1 (configuration not stated) | 0.7 | 4.1 | . | -0.2 | 20 | . | . | . | .
COCCNC(=S)N1CCCC(CO)C1 (configuration not stated) | 0.69 | -0.4 | i | 0.0 | 12 | 18 | 14 | 3.0 | -5
CCCn1c(SCC(=O)N(CC)CC)nnc1-c1ccncc1 | 0.66 | 2.4 | i | -6.8 | -1 | 24 | 22 | 2.5 | -2
COc1cccc(CN2CCC(C(=O)NC(C)c3cccc4ccccc34)CC2)c1 (configuration not stated) | . | . | i | -0.2 | . | -2 | -44 | 20 | .
Cc1cccc(C)c1NC(=O)c1nc(S(=O)(=O)Cc2ccccc2)ncc1Cl | . | . | i | -4.3 | 28 | -1 | -7 | -3.3 | 97*
CCOc1ccccc1OCC(=O)Nc1cccc(S(=O)(=O)NC2=NCCCCC2)c1 | 0.67 | 2.1 | i | 4.7 | -8 | -13 | -10 | 2.7 | -19
CCC(Oc1ccccc1)C(=O)N(Cc1ccccc1)c1ccccn1 (configuration not stated) | 0.65 | 2.3 | . | -0.5 | 5 | . | . | . | -10
Cc1ccnc(NS(=O)(=O)c2ccc(NC(=O)c3ccc(Br)o3)cc2)n1 | 0.67 | 1.4 | i | -1.3 | 8 | . | . | . | -6
Cc1cc(-c2nc3cccnc3s2)ccc1NS(=O)(=O)c1cccs1 | 0.76 | -422 | i | 0.7 | -5 | 8 | 12 | 8.4 | 16
CC(C)=C(NC(=O)c1ccco1)C(=O)NCCc1nc2ccccc2[nH]1 | 0.67 | -0.8 | . | -1.2 | -3 | . | . | . | -6
Cc1ccc(OCc2nnc(SCc3cc(=O)[nH]c4ccccc34)o2)cc1 | 0.71 | 0.4 | . | -0.3 | -2 | . | . | . | -4
COC(=O)Cc1ccc(OC2(C)CCN(Cc3ccccc3OC(F)F)C2)cc1 (configuration not stated) | . | . | i | 3.5 | . | 1 | 5 | 0.7 | .
CN(CC(=O)Nc1cccc(F)c1)C(=O)CN1C(=O)C2CC=CCC2C1=O (configuration not stated) | 0.72 | -1.9 | i | -7.3 | 1 | 6 | 12 | -1.4 | .
Cc1cccc(NC(=O)CN2CCN(C(=O)CNC(=O)Cc3cccc4ccccc34)CC2)c1C | 0.7 | 1.2 | i | 1.6 | 2 | . | . | . | -1
COc1ccc(NC(=O)Nc2cccc3c2O[C@H](CN(C)S(C)(=O)=O)[C@@H](C)CN([C@H](C)CO)C3=O)cc1 | . | 2.7 | i | -3.3 | 6 | -4&4 | -8&1 | -1.6&-0.3 | 27
CC(=O)Nc1ccc(-c2ccnc3c2CC(C(=O)NCC2CCOCC2)O3)cc1 (configuration not stated) | . | . | i | 0.4 | . | -8 | -7 | -2.2 | .
CC1(C)COC(/C=C/c2ccc([N+](=O)[O-])cc2)=N1 | 0.62 | 2.3 | . | -1.1 | 15 | . | . | . | .
COCCNC(=O)c1cc2oc3ccccc3c2n1C | 0.66 | 3.0 | . | -0.7 | -13 | . | . | . | 0
O=C(Nc1ccccc1N1CCCCC1)C1CC(=O)N(c2ccccc2F)C1 (configuration not stated) | 0.68 | 1.8 | i | -4.5 | -12 | -10 | -17 | -3.1 | -2

Compound activity from PubChem BioAssay.
